D2 ag – Beta-Arrestin HTS for Positive Allosteric Modulators of the Human D2 Dopamine Receptor: Agonists; activation, % (no concentration beside the values); DiscoveRx PathHunter D2 beta-arrestin, luminescence, 90 min; 100% = 57 uM dopamine signal; D(2) dopamine receptor (Homo sapiens), P14416; hit rate 0.084% among 360,000; in the data active = activation above about 40%; inconclusive = about 15% to 40%; inactive = below about 15%; further: compound concentration not given in the record; the text of the record calls up to 30% inactive
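Agonist mode: compounds alone added to overnight-plated D2 PathHunter cells for 90 min at 37 C, with 57 uM final dopamine (EC100) defining full response. Beta-arrestin recruitment detected by chemiluminescent reagent, read after 1 h at ambient temperature.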
D2 PAM – Beta-Arrestin HTS for Positive Allosteric Modulators of the Human D2 Dopamine Receptor: Potentiators; D(2) dopamine receptor (Homo sapiens), P14416; DiscoveRx D2 beta-arrestin cells, luminescence, 90 min; 100% = 57 uM dopamine signal; potentiation, % (no concentration beside the values); hit rate 0.23% among 360,000; active = potentiation of 50% or more; inconclusive = 30% to 50%; inactive = 30% or less;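 further: compound concentration not given in the record; tested on top of an EC20 dose of dopamine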
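D2 cells co-treated with compound plus 50 nM dopamine (EC20) for 90 min at 37 deg C to detect potentiation. Beta-arrestin recruitment was read as enzyme-fragment luminescence after 1 h at ambient temperature. Full response was set by 57 uM dopamine.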
TRPML1 ag – qHTS for Agonists of the Human Mucolipin Transient Receptor Potential 1 (TRPML1). activation, % (no concentration beside the values). hit rate 0.12% among 410,000. TRPML1-expressing cells, Ca2+ dye fluorescence, FDSS; host cell line not named in the record; reference of the full effect not given here. Mucolipin-1 (Homo sapiens), Q9GZU1; in the data active = activation above about 50%; inconclusive = about 30% to 50%; inactive = below about 30%; further: 0% is about no effect; the text of the record puts the active cut at 80%
Target sequence (Q9GZU1 whole entry, looked up): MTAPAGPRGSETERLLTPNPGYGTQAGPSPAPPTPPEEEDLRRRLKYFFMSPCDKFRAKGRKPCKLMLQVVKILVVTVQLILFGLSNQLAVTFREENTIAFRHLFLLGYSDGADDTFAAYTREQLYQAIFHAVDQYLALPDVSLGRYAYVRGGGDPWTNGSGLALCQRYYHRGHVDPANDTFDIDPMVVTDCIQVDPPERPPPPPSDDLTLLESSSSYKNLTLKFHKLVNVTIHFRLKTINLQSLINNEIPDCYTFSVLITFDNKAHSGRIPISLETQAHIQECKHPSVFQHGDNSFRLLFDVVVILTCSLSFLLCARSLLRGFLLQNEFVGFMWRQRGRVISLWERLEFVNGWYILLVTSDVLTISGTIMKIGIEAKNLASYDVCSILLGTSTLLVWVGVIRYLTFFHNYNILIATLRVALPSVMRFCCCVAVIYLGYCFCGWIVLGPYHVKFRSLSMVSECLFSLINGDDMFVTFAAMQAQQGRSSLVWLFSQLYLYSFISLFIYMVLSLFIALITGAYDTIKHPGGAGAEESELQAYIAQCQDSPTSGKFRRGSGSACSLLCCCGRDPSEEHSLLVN
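In this qHTS format, compounds were pin-transferred onto Ca8-dye-loaded TRPML1-DL cells induced with Tet overnight, and intracellular Ca2+ fluorescence was recorded kinetically for 110 s after a 10 s baseline. A subsequent 4uM final 54-4 (EC80) addition followed by a second 110 s read served as the antagonist phase.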
Six1-Eya2 blk – qHTS Assay for Inhibitors of the Six1/Eya2 Interaction. Homeobox protein SIX1 (Homo sapiens) + Protein phosphatase EYA2 (Homo sapiens), …. AlphaScreen GST-Six1/His-Eya2 binding, biochemical; hits give low values; control for the full effect not named in the record. activity change, % (test concentration not listed). hit rate 0.56% among 360,000; in the data active = activity change below about -65%; inconclusive = about -30% to -65%; inactive = above about -30%; further: on the % scale 0 is the no-effect control and ±100 the full control effect; compound concentration not given in the record
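Homogeneous AlphaScreen proximity assay pairing GST-Six1 with His-tagged Eya2 (added as 5X mix: 250 nM and 500 nM) in 50 mM Tris pH 8.0, 300 mM NaCl, 1 mM TCEP. Glutathione donor and nickel acceptor beads; 1 h, 37 °C, dark.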
CtBP-E1A blk – qHTS Assay for Inhibitors of the CtBP/E1A Interaction; CtBP / adenovirus E1A interaction (AlphaScreen); AlphaScreen GST-E1A/His-CtBP binding, 1536-well; hits give low values; control for the full effect not named in the record; activity change, % (concentration not given with the values); hit rate 0.49% among 340,000; AID 651724, 2012; in the data active means activity change below about -65%; inconclusive means about -30% to -65%; inactive means above about -30%; further: on the % scale 0 is the no-effect control and ±100 the full control effect
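In 5 uL wells, 23 nL compound meets equimolar GST-E1A and His-CtBP (5X stock 125 nM each) for 2 h, 37 °C. Beads (5X, 50 ug/mL) then 1 h, 37 °C, dark.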
PINK1 expr mod – A Quantitative High throughput Screen to Identify Chemical Modulators of PINK1 Expression. PINK1 immunofluorescence, high-content cytometry, 24 h. Potency, µM (top dose mostly 76.6 µM), without a hit: top-dose activation (PINK1 increase), usual class: activators. AID 624263, 2012. hit rate 0.2% among 410,000; active = well fitted activation curve with a large enough effect; inconclusive = small, poorly fitted or top-dose-only effect; inactive = flat fitted curve, though single readings scatter; cell line not stated here;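 further: potency means the concentration at half of the fitted maximal effect; % of control where 0% means no effect; nearly all actives have a fitted effect of over 65% in size; a mitochondrial uncoupler was the plate control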
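Readout is PINK1 immunofluorescence, quantified alongside mitochondrial, cell and nuclear markers by laser-scanning microplate cytometry. Cells from a stable line were exposed to compound titrations (5 concentrations) for 24 hours, with CCCP controls.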
Active calls of the source: *; ? = inconclusive; / = not tested or not shown; [ ] = another dose, or the depositor's remark.

molecule	D2 PAM	D2 ag	TRPML1 ag	PINK1 expr mod	CtBP-E1A blk	Six1-Eya2 blk
COc1ccc(N(CC(=O)NCc2ccccc2OC)S(=O)(=O)c2ccccc2[N+](=O)[O-])c(OC)c1	-3	-1.9	0.2	3.5%	2	-2
C=CCC[C@@H](Cc1ccc(F)cc1)C(=O)OC[C@@H](NC(=O)[C@H](CC=C)CC(=O)NCCO)C(C)(C)C	9	1.4	0.0	1.6%	4	3
Cc1ccccc1C(=O)NNC(=O)C1CC(=O)N(Cc2ccccc2)C1 (stereo unspecified)	-21	-0.3	0.1	0.8%	5	-2
O=C(CN(Cc1ccc(F)cc1)C(=O)CCC(=O)Nc1ccccn1)NCCc1ccccc1	-8	-3.2	0.7	0.7%	2	1
Cc1nc(Cc2nnc(SCC(=O)N3CC(=O)Nc4ccccc43)o2)cs1	-3	-4.1	1.1	-2.1%	1	-3
Cc1cc(=O)oc(C)c1C(=O)OCC(=O)c1ccc(Cl)cc1	-19	2.0	0.6	0.5%	1	-2
COc1ccc(NC(=O)c2csc(C)c2)cc1OC	-6	-2.3	-0.5	1.2%	1	4
Cc1ccc(Cl)cc1N(CC(=O)NC1CCCC1)C(=O)c1csnn1	-12	-8.4	-0.9	4.4%	-1	-13

3 entries drawn at random from the list so far:
molecule	D2 PAM	D2 ag	TRPML1 ag	PINK1 expr mod	CtBP-E1A blk	Six1-Eya2 blk
O=C(CN(Cc1ccc(F)cc1)C(=O)CCC(=O)Nc1ccccn1)NCCc1ccccc1	-8	-3.2	0.7	0.7%	2	1
COc1ccc(N(CC(=O)NCc2ccccc2OC)S(=O)(=O)c2ccccc2[N+](=O)[O-])c(OC)c1	-3	-1.9	0.2	3.5%	2	-2
Cc1ccccc1C(=O)NNC(=O)C1CC(=O)N(Cc2ccccc2)C1 (stereo unspecified)	-21	-0.3	0.1	0.8%	5	-2

Further structures
molecule	D2 PAM	D2 ag	TRPML1 ag	PINK1 expr mod	CtBP-E1A blk	Six1-Eya2 blk
S=C(Nc1ccccc1Cl)N(Cc1cccnc1)Cc1ccco1	1	0.4	0.8	0.2%	0	-4
CN1CCCC(OC(=O)c2ccc(Cl)cc2)C1 (stereo unspecified)	-10	-1.4	0.5	1.3%	-9	-3
Cc1ccc(F)cc1NC(=O)C1CCN(c2cnccn2)CC1	-12	-1.7	-0.6	-1.6%[38.3 µM]	6	5
COc1cccc(CNCCSc2nnnn2C)c1	-12	-0.1	-0.1	?	2	2
Cn1c(Cn2c(=O)sc3ccccc32)nnc1SCC(=O)Nc1cccc(F)c1	-4	-1.3	1.2	2.7%	-11	-14
COc1ccccc1/C=C/C(=O)NC(=S)NC(C)C	-12	-4.3	1.8	1.4%	-2	-6
N#CCSc1nc2ccc(N3CCCCC3)cc2c(=O)n1Cc1ccccc1	-4	0.2	-0.3	8.5%[38.3 µM]	-3	-8
Nc1nnc(CC(=O)N/N=C/c2ccccc2OCc2ccccc2F)s1	-1	-1.2	0.1	3.7%	0	1
Cc1cc(N2CCN(c3ccc(F)cc3)CC2)nc2cc(O)ccc12	-10	-6.1	0.9	14%	-2	-20
Cc1ccccc1NC(=O)CN1C(=O)C2C3CC(C(Br)C3Br)C2C1=O (stereo unspecified)	-6	-3.8	7.0	0.3%	8	-1
Cc1cccc(C)c1NC(=O)CN1CCNCC1	-13	-1.6	1.5	-1.8%	-2	5
Clc1ccc(Nc2nc(-c3cccnc3)cs2)cc1	9	3.2	-1.5	-1.6%	-5	9
Cc1cccc[n+]1CC(=O)c1ccc(Cl)cc1	-22	-5.8	-0.5	0.6%	/	6
Cc1ccc(C(C)(C)C)cc1S(=O)(=O)Nc1nc2ccccc2nc1Cl	3	11	/	0.5%	-2	-1
CC1CC(C)CN(C(=O)CN(C)S(=O)(=O)c2ccc3c(c2)c(=O)n(C)c(=O)n3C)C1 (stereo unspecified)	-8	-3.7	-0.9	0.1%	1	-2
COc1ccc2ccccc2c1/C=N/O	7	-4.1	-0.1	6.1%	8	1
COc1ccc(Cl)cc1-c1nc(-c2ccc(NC(=O)c3cccs3)cc2)no1	10	2.5	0.0	-3.8%	11	4
Nc1ccc(NC(=O)Nc2ccc(N)cc2)cc1	9	5.6	0.1	-1.0%	/	-2
CCC(C)(C)n1nnnc1C(c1cccnc1)N1CCN(c2cccc(C(F)(F)F)c2)CC1 (stereo unspecified)	16	-0.1	3.1	-0.7%	-6	-5
CC(C)(C)[C@@H]1C=C(C(=O)N2CCN(Cc3ccccc3)CC2)O[C@H](OCc2ccc(CO)cc2)C1	-38	0.0	0.0	0.4%	-3	-4
O=S(=O)(NCc1ccccn1)c1ccc2c(c1)OCCO2	12	-3.6	0.1	-1.5%	-1	8
COc1cc(NC(=O)c2ccc(Cl)cc2Cl)ccc1NC(=O)c1cccs1	1	5.3	1.7	?	-3	2
COc1cc(/C=C/C(=O)OCC(=O)NCc2ccco2)ccc1OCC#N	0	-0.1	0.3	5.4%	-3	-3
COc1ccc(C)cc1S(=O)(=O)N(C)CC(=O)NCc1ccccn1	-7	-2.5	0.4	0.8%	3	-1
O=C(c1ccco1)N1CCN(CCCCN2C(=O)c3ccccc3C2=O)CC1	3	?	0.0	/	40	14
CCC(C(=O)NC1CCCCC1)N(CC1CCCO1)C(=O)CNS(=O)(=O)c1ccc(OC)cc1 (stereo unspecified)	4	-4.9	1.0	-1.5%	1	-9
COc1ccc(Cc2nnc(NC(=O)c3ccc(OC)cc3OC)s2)cc1	2	4.1	0.0	0.8%	2	-2
N#Cc1c(N)n(-c2ccccc2)c(=O)c2cc([N+](=O)[O-])ccc12	-6	0.2	0.8	1.3%	2	-2
CC1CN(C(=S)Nc2ccccc2C(F)(F)F)CC(C)O1 (stereo unspecified)	18	-3.4	0.9	-0.4%	1	1
CC(C)Sc1nc2ccccc2n2cnnc12	-4	6.8	0.2	1.8%	-10	-10
O=C(COc1ccccc1Cl)Nc1ccc2oc(=O)ccc2c1	4	1.0	-0.1	0.2%	14	0
CCOC(=O)Nc1ccc([N+](=O)[O-])cc1C	-7	-2.4	-0.5	-0.9%	0	0
COC(=O)c1cc(/C=C/c2ccccc2)[nH]n1	0	4.5	0.3	3.5%	-3	4
CCCOC(=O)c1c(NC(=O)C2CCCO2)sc(C(=O)OC)c1C (stereo unspecified)	-8	-7.4	1.0	2.7%	-27	-1
CCOc1ccc(C(=O)NCCCN(CC)CC)cc1	-11	1.6	0.6	3.2%[38.3 µM]	2	7
CCOc1cccc(Oc2ncccc2C(=O)/C(C#N)=C/N(C)C)c1	1	-2.4	-0.5	1.3%	4	5
O=S1(=O)CCC(n2ncc3c2/C(=C/c2ccccc2)CC3)C1 (stereo unspecified)	-23	-2.7	0.9	4.2%	-2	0
CC(C)(C)C(=O)CN1C(=O)NC(c2ccccc2)(c2ccccc2)C1=O	-4	-0.3	1.9	6.8%	1	-9
Cn1c(=O)c2[nH]c(CNCc3ccccc3Cl)nc2n(C)c1=O	-4	-2.8	-0.2	0.0%	-18	-18
CCOC(=O)C1=C(CS(=O)(=O)c2ccccc2)NC(=O)NC1c1ccccc1OC (stereo unspecified)	-8	-0.8	-0.3	-0.3%	-3	-5
Cc1csc(SCC(=O)Nc2ccc(S(=O)(=O)N3CCCC3)cc2)n1	-5	-1.6	1.1	1.4%[38.3 µM]	-21	-15
CCOC(=O)c1c(N)c2cc([N+](=O)[O-])ccc2n1C	-6	-6.9	0.1	-0.1%	/	-5
c1ccc(OCc2nn3c(-c4n[nH]c5c4CCC5)nnc3s2)cc1	-3	0.5	3.2	2.9%	-24	-10
COc1ccccc1N(C)S(=O)(=O)c1ccc(C(=O)Nc2nnc(C)s2)cc1	1	2.6	-0.1	4.9%	-24	1
CCCCOC(=O)C(C)Nc1n[nH]c(=O)[nH]c1=O (stereo unspecified)	-2	1.3	-0.7	0.1%	14	1
C[C@@H](NC(=O)[C@@H]1Cc2ccccc2CN1C(=O)OC(C)(C)C)C(=O)NCC1CCCO1 (stereo partly specified)	-7	-6.0	1.1	-0.2%	0	25
Cc1c(Cl)cccc1NC(=O)CN1CCC(NC(=O)C2CCCCC2)CC1	-3	0.0	0.4	-3.6%[38.3 µM]	7	7
CC1(C)Cc2cccc(OCC(=O)Nc3ccccc3F)c2O1	-2	1.2	5.5	-1.9%	7	3
CCCN(CCC)c1c([N+](=O)[O-])c(=O)oc2ccccc12	-4	-4.9	0.4	-1.0%	-24	7
Cn1c(C=O)c(C#CC(C)(C)O)c2ccccc21	-14	1.9	0.1	0.6%	/	8
O=C(NCc1ccc(N2CCCC2=O)cc1)c1cn(Cc2ccccc2)nn1	4	0.9	0.2	4.7%	-3	8
COc1cc(C(=O)NCC(c2cccs2)N2CCc3ccccc32)cc(OC)c1OC (stereo unspecified)	-2	5.2	-1.0	7.6%	-19	-27
Cc1noc(C)c1S(=O)(=O)Nc1c(C)n(C)n(-c2ccccc2)c1=O	2	-2.2	-0.4	-0.3%	-2	7
Cc1cc(C)c(N2C(=O)C3C4CC(=O)C(c5ccccc54)C3C2=O)c(C)c1 (stereo unspecified)	-8	-1.2	1.1	0.3%	0	11
CCOc1ccc(S(=O)(=O)NCCC(=O)NCc2ccccn2)cc1	1	-0.1	-0.1	-0.7%	0	-16
CN(CC(=O)NCCc1ccccc1)Cc1ccco1	-9	-3.2	1.9	-0.7%	-3	-3
